N370S GC mod: N370S glucocerebrosidase modulation, Gaucher chaperone candidate; P04062; N370S GC spleen homogenate, 4MU-glucoside fluorescence; Potency, µM (top dose mostly 59.4 µM), for inactives: at the top dose activity change, negative = inhibition, hits mostly inhibitors; actives 0.092% (n = 330,000); AID 2101;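 also: 0% = full enzyme activity and -100% = no enzyme basal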
KAT2A inh: blocks human GCN5L2 histone acetyltransferase | AID 504327 | Potency, µM (series often up to 58.9 µM), for inactives: at the highest dose activity change, negative = inhibition, most hits filed as inhibitors | GCN5L2 HAT assay, ThioGlo1 CoA-SH fluorescence | actives 0.21% (n = 390,000) | Q92830
Target sequence (Q92830 whole entry, looked up): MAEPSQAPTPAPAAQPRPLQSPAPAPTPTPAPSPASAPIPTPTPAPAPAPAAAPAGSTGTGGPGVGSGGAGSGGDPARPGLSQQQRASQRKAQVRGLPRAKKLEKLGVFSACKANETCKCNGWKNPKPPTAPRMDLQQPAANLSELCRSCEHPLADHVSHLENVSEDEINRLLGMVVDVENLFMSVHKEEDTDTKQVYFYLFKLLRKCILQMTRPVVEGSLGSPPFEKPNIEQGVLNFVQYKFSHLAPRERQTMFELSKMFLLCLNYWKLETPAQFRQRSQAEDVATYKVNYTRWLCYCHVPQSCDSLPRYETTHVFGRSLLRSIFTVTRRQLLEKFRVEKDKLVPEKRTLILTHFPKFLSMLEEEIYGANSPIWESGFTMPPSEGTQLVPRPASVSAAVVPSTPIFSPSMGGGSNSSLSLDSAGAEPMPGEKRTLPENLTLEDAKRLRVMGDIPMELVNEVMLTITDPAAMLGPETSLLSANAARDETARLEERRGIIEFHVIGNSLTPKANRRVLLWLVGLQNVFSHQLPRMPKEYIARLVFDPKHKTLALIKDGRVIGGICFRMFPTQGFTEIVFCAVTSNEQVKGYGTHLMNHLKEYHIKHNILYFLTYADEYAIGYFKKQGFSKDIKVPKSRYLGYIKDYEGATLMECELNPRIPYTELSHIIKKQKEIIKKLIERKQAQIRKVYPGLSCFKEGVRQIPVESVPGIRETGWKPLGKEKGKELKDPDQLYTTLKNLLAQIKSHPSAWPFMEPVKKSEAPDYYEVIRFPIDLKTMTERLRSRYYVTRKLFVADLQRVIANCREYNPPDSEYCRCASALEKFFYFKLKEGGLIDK
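Free CoA generated was detected with ThioGlo1 (50uM) fluorescence at Ex340nm/Em540nm, read immediately and after 20 min at room temperature. Enzyme, 20 nM in HEPES pH 7.5 buffer, saw compounds 15 min before adding 75uM H3(1-25) peptide and 70uM acetyl-CoA.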
Active calls of the source: *; u = inconclusive; x = no result given; & = joins results of further samples. Calls follow the shape of the dose curve; as a rule, active = well fitted curve in the direction sought with a large enough effect; inconclusive = small, poorly fitted or top-dose-only effect, or another doubt; inactive = no such curve, though single readings can be large; an effect the other way counts as inactive or inconclusive. Unless noted, % is scaled to controls: 0 for no effect and ±100 for the full control effect; potency is read from the fitted curve at half-maximal effect. Some of the compounds tested; most or all hits stand in other tables.

SMILES | N370S GC mod | KAT2A inh
CCCc1ccc2oc(C(=O)N3CCN(CC(=O)NC(C)C)CC3)c(C)c2c1 | 0% | -5%
O=C(Nc1ccc(Cl)c(Cl)c1)N1N=CCC1c1ccccc1 (stereo not drawn) | 29% | -14%
CCOc1ccccc1C(=O)Nc1ccc(S(=O)(=O)Nc2ncccn2)cc1 | x | -6%
N#CC(C#N)=Cc1c(N2CCN(c3ccccc3)CC2)nc2ccccn2c1=O | -7% | -16%
Cc1ccc(NC(=O)NC2(C(=O)NCc3ccccc3)CCCCC2)cc1 | 1% | 3%
CCCN1C2CCCC1CC(NC(=O)c1ccccc1OC)C2 (stereo not drawn) | -11% | 0%
N#Cc1ccc(Oc2ccc(C(N)=O)cc2)cc1C#N | 9% | 1%
CCOC(=O)c1cc(-c2cccc([N+](=O)[O-])c2)n[nH]1 | 6% | -1%
CCc1ccccc1NC(=O)c1ccc(OCc2c(C)noc2C)cc1 | x | -6%
CC(C)CN(C(=O)COC(=O)Cn1cnc2ccccc2c1=O)C1CCS(=O)(=O)C1 (stereo not drawn) | -5% | 6%
Cc1ccc(C2=NNC(C(O)C(O)C(O)CO)S2)cc1 (stereo not drawn) | x | 2%
COc1ccc(C2/C=C\CN(C(=O)c3ccccc3)CC(=O)N2Cc2cccc(F)c2)cc1 (stereo not drawn) | x | -5%
O=C(O)c1ccc(COc2ccc3c4c(c(=O)oc3c2)CCC4)o1 | -5% | -13%
O=C(CNC(=O)c1nn(Cc2ccccc2)c(=O)c2ccccc12)Nc1ccc(F)c(F)c1F | x | -1%
COc1ccc(/C=C/c2c([N+](=O)[O-])c(=O)n(C)c(=O)n2C)c(OC)c1OC | -6% | -3%
CCCN(CCC)C(=O)c1cc(S(=O)(=O)N2CCCCC2)c[nH]1 | -14% | -1%
COc1ccc(OC)c(CNC(=O)c2nn(-c3ccc(OC)c(Cl)c3)c(=O)c3c2c2ccccc2n3C)c1 | x | 0%
O=C(c1cc(COc2ccccc2)on1)N1CCCC(OCc2cccnc2)C1 (stereo not drawn) | 1% | -26%
COCCNC(=O)CCC1CCN(Cc2cccc(-c3ccc(C)o3)c2)CC1 | -1% | 0%
CCOC(=O)C(C)Oc1cccc2c(=O)n(CC(=O)N3CCc4ccccc43)ccc12 (stereo not drawn) | -9% | -11%
O=C(COC(=O)COc1ccccc1Cc1ccccc1)Nc1cccnc1Cl | 14% | -13%
CCOc1ccccc1NC(=S)NC(=O)CCc1ccccc1 | 11% | u
NC12CC3CC(CC(C3)C1)C2 | -5% | u
COc1cc(C2SCC(=O)N2Cc2ccccc2)cc(OC)c1OC (stereo not drawn) | 1% | -11%
O=C(Cn1c(=O)n(-c2ccccc2)c(=O)c2ccc(C(=O)NCc3ccc4c(c3)OCO4)cc21)Nc1ccc(F)cc1 | x | 0%
CC1Cc2ccccc2N1S(=O)(=O)c1cccc2nsnc12 (stereo not drawn) | -13% | -4%
CC(C)N(Cc1ccccc1)C(=S)Nc1cccnc1 | -3% | 0%
Cc1ccc(SC(C)C(=O)NC(N)=O)c(C)c1 (stereo not drawn) | -2% | 2%
Cc1ccc(C2(O)CN(c3ccccc3)C3=[N+]2CCS3)cc1 (stereo not drawn) | -6% | -4%
Cc1cc([N+](=O)[O-])nn1CC(=O)N1CCOCC1 | 3% | -7%

Arranged by molecular weight (highest first): some entries from above.
SMILES | N370S GC mod | KAT2A inh
O=C(Cn1c(=O)n(-c2ccccc2)c(=O)c2ccc(C(=O)NCc3ccc4c(c3)OCO4)cc21)Nc1ccc(F)cc1 | x | 0%
COc1ccc(OC)c(CNC(=O)c2nn(-c3ccc(OC)c(Cl)c3)c(=O)c3c2c2ccccc2n3C)c1 | x | 0%
CCOC(=O)C(C)Oc1cccc2c(=O)n(CC(=O)N3CCc4ccccc43)ccc12 (stereo not drawn) | -9% | -11%
O=C(COC(=O)COc1ccccc1Cc1ccccc1)Nc1cccnc1Cl | 14% | -13%
COCCNC(=O)CCC1CCN(Cc2cccc(-c3ccc(C)o3)c2)CC1 | -1% | 0%
COc1cc(C2SCC(=O)N2Cc2ccccc2)cc(OC)c1OC (stereo not drawn) | 1% | -11%
CCCN(CCC)C(=O)c1cc(S(=O)(=O)N2CCCCC2)c[nH]1 | -14% | -1%
CC1Cc2ccccc2N1S(=O)(=O)c1cccc2nsnc12 (stereo not drawn) | -13% | -4%
Cc1ccc(C2(O)CN(c3ccccc3)C3=[N+]2CCS3)cc1 (stereo not drawn) | -6% | -4%
CC(C)N(Cc1ccccc1)C(=S)Nc1cccnc1 | -3% | 0%
Cc1cc([N+](=O)[O-])nn1CC(=O)N1CCOCC1 | 3% | -7%
Cc1ccc(SC(C)C(=O)NC(N)=O)c(C)c1 (stereo not drawn) | -2% | 2%
NC12CC3CC(CC(C3)C1)C2 | -5% | u

Next part:
SMILES | N370S GC mod | KAT2A inh
O=C(CN1CCOC1=O)N1CCCC(Nc2ccc(F)c(F)c2)C1 (stereo not drawn) | -1% | -3%
NC(=O)C1CCN(C(=O)c2cccc(S(=O)(=O)N3CCCC3)c2)CC1 | -12% | 1%
N#Cc1c(N)c(C#N)c(-c2ccc3c(c2)OCO3)c2c1CCCC2 | 20% | -21%
O=C(NCc1ccccc1Br)c1ccco1 | 0% | -4%
CCOc1ccc(NC(=O)c2c(NC(=O)c3ccncc3)sc3c2CCC(C(C)(C)C)C3)cc1 (stereo not drawn) | x | -2%
COc1cc2c(=O)n(CCC(=O)NCC3CCCO3)c(=O)n(CC(=O)c3ccc(Cl)cc3)c2cc1OC (stereo not drawn) | -15% | 0%
CCCOc1ccc(-c2c(C(=O)N/N=C/c3ccccc3)nnn2-c2nonc2N)cc1 | -4% | 0%
O=C(c1cc(-c2cccc(O)c2)on1)N1CCCCCC1 | -10% | -6%
CC(=O)Nc1ccc2nc(NC(=O)COc3ccc(C)cc3)sc2c1 | -1% | -10%
COc1ccc2[nH]c(=O)c(CN(CCN3CCCC3)C(=O)Nc3ccccc3Cl)cc2c1 | -9% | -3%
Cn1nnnc1SCCNCc1ccccc1Cl | x | -6%
CN(C)CCOC1c2ccccc2-c2ccccc21 | -9% | -4%
COc1cccc(N2C(=O)CSC23C(=O)N(Cc2ccccc2F)c2ccccc23)c1 (stereo not drawn) | x | -15%
CCOn1c(SCC)nc2ccccc2c1=O | 3% | -10%
CC(c1ccccn1)N(C)C(=O)c1ccc2nc(Cc3cccc(Cl)c3)oc2c1 (stereo not drawn) | 2% | 2%
O=C(O)CC(NC(=O)OCc1ccccc1)c1ccccc1 (stereo not drawn) | -1% | -1%
CCN(CC)c1ccc(-c2n[nH]c(=S)n2-c2ccccc2)cc1 | 10% | -6%
COc1cc(NC(=O)c2ccccc2OCc2ccccc2)cc(OC)c1OC | -11% | -8%
Cc1ccc(S(=O)(=O)CCC(=O)NCc2ccc(Cl)cc2)cc1 | 2% | -7%
COCc1c(C(=O)Nc2cccc(S(=O)(=O)N3CCCCC3)c2)oc2ccccc12 | x | -14%
CCOC(=O)Cc1csc(NC(=O)CSc2nc3sc(C(=O)O)c(C)c3c(=O)[nH]2)n1 | 10% | 0%
Cc1ccc(C(=O)NCC(=O)NCC(=O)OCC(=O)c2ccc([N+](=O)[O-])cc2)cc1 | 2% | 3%
O=C(Cc1nnc(NC(=O)Nc2ccc(F)cc2)s1)NCc1ccccc1 | -9% | 27%
Cc1ccc(C(=O)C[n+]2ccc3ccccc3c2)cc1 | -7% | -3%
CC(=O)NC(=O)COC(=O)c1ccc2ncsc2c1 | 2% | -5%
O=C1c2ccccc2C(=O)N1/N=C/c1ccc(Oc2ccc([N+](=O)[O-])cn2)cc1 | 17% | -8%
CC1=C(C#N)C(NC(=O)c2ccc(C)cc2)(C(F)(F)F)C(=O)N1 (stereo not drawn) | 13% | 2%
CCN(CC)CCNC(=O)C1(O)c2cc(Br)ccc2NC(=O)N1c1cccc(OC)c1 (stereo not drawn) | 3% | 23%
CCC(C)(C)NC(=O)C(c1ccccn1)N(C(=O)c1csnn1)C1CCCCC1 (stereo not drawn) | 26% | 6%
COc1ccc(NC(=O)CSc2nc3cccnc3n2C)cc1 | 7% | -24%
CN(CC(=O)Nc1cccc(S(=O)(=O)N2CCCC2)c1)CC(=O)Nc1ccc(Cl)c(C(F)(F)F)c1 | -6% | -14%
C=CCn1c(C(CCCC)CC(C)O)n[nH]c1=S (stereo not drawn) | 0% | 2%
Cc1ccc(NC(=O)COC(=O)C2CC2)c(Br)c1 | -16% | -3%
COc1ccc(C)cc1S(=O)(=O)NCCC1=CCCCC1 | 2% | -19%
O=C(NC12CC3CC(CC(C3)C1)C2)N1CCCC(CO)C1 (stereo not drawn) | 6% | -6%
O=C(Nc1ccc(OCc2ccccc2)cc1)Nc1cccnc1 | u | -1%
CSc1ccccc1NC(=O)C1CC(c2ccccc2O)=NO1 (stereo not drawn) | 1% | -3%
O=C(c1ccccc1)N1CCN(S(=O)(=O)c2cccs2)CC1 | 1% | 4%
Cc1ccc(NS(=O)(=O)c2cccc(C(=O)N3CCN(c4ncccn4)CC3)c2)cc1 | x | 3%
CCOC(=O)c1ccc2nc(C)c3c(c2c1)OC(C)C3 (stereo not drawn) | -4% | 1%
CCN(C(=O)COC(=O)c1c(C)noc1C)C1CCS(=O)(=O)C1 (stereo not drawn) | -5% | -6%
O=C(Cn1nc([N+](=O)[O-])nc1Br)NC(c1ccccc1)c1ccccc1 | 8% | -9%
COc1ccc(N(CC(=O)Nc2cc(C)ccc2OC)S(=O)(=O)c2c(C)noc2C)cc1 | 9% | -4%
CS(=O)(=O)NCC(c1ccco1)N1CCN(c2ccc(F)cc2)CC1 (stereo not drawn) | -2% | -1%&-3%
CC(=O)Nc1ccc(NC(=O)Cn2c(=O)n(-c3ccc(F)cc3)c(=O)c3oc4ccccc4c32)cc1 | 10% | -9%

Arranged by the number under KAT2A inh (lowest first): 3 from the list above.
SMILES | N370S GC mod | KAT2A inh
COc1ccc(C)cc1S(=O)(=O)NCCC1=CCCCC1 | 2% | -19%
O=C(Nc1ccc(OCc2ccccc2)cc1)Nc1cccnc1 | u | -1%
C=CCn1c(C(CCCC)CC(C)O)n[nH]c1=S (stereo not drawn) | 0% | 2%

Carrying on.
SMILES | N370S GC mod | KAT2A inh
O=C(COC(=O)c1cc(Cl)ccc1[N+](=O)[O-])Nc1cccc2ccccc12 | -20% | -6%
COc1cccc(CN(C(=O)c2cc3ccccc3oc2=O)C2CC2)c1 | 8% | 0%
Cc1ccc(N(C(=O)c2ccc3c(c2)OCO3)C2C=CS(=O)(=O)C2)cc1C (stereo not drawn) | -14% | 1%
CCc1ccc(C2NC(=O)c3[nH]nc(-c4cccc(OC)c4)c32)cc1 (stereo not drawn) | x | 1%
O=C(O)CC1S/C(=N/N=C2CCCCC2)N(c2ccccc2)C1=O (stereo not drawn) | 10% | -2%
FC(F)(F)Oc1ccc(NC(=S)NCCCN2CCOCC2)cc1 | -9% | -5%
CCOC(=O)C1CCCN(C(=O)C(C)(C)Oc2ccc(Cl)cc2)C1 (stereo not drawn) | 0% | 2%
Cc1ccc2[nH]c(SCC(=O)N3CCOCC3)nc2c1C | 4% | -6%
O=C(COc1ccc(Cl)cc1)Nc1ccc2c(c1)C(=O)NC2=O | 3% | -1%
CCC1CCCCN1CCCNC(=O)CSc1nc2nc(C)c(Cc3ccccc3)c(C)n2n1 (stereo not drawn) | 1% | 0%
CC(C)c1ccc(NC(=O)NC2CC3CCC(C2)N3Cc2cccs2)cc1 (stereo not drawn) | 9% | 0%
CCOc1ccccc1NC(=O)Cn1nnc(C(=O)NCc2ccc(F)cc2)c1N | x | -3%
CC(=O)Oc1cccc(N2C(=O)C3C(C2=O)C2C=CC3C23CC3)c1 (stereo not drawn) | 1% | 0%
O=C1c2ccccc2C(Nc2ccccc2)N1c1ccc(Cl)cn1 (stereo not drawn) | 10% | -7%
CN(C(=O)C1CCOC1)c1nnc(-c2ccncc2)s1 (stereo not drawn) | -1% | 1%
Cc1ccccc1NC(=O)c1cccc(C(F)(F)F)c1 | -8% | -2%
O=C(Nc1cccc(Cl)c1)NC1CC2CCC1C2 (stereo not drawn) | -4% | -1%
O=C(NCCN1CCN(c2ccccc2)CC1)Nc1ccccc1Br | -2% | -18%&-2%
Cc1ccc(NC(=O)CN(C)C(=O)COC(=O)COc2ccc(C#N)cc2)cc1 | -6% | -13%
CCc1ccc(S(=O)(=O)ON2C(=O)c3ccccc3C2=O)cc1 | -5% | -5%
c1ccc2c(NC3C4CC5CC(C4)CC3C5)nc(N3CCOCC3)nc2c1 (stereo not drawn) | -28% | -18%
Cc1ccc(Cc2cncc(O)c2)cc1S(=O)(=O)O | -4% | u
CCCC1Cc2c(sc(N)c2C#N)CO1 (stereo not drawn) | -7% | 2%
CCN(CC)C(=O)CSc1nc(C)cc(C)n1 | 8% | -4%
COc1cccc(-c2nc(OC(C)C)c3ccccc3n2)c1 | 6% | 0%
Cc1cccc(OCc2nnc(N)s2)c1C | 6% | -3%
CCOC(=O)/C=c1\s/c(=C\c2ccc(C(F)(F)F)cc2)c(=O)n1CC(=O)NCc1ccco1 | -4% | 0%
Cc1ccc2nc(-c3ccncc3)cc(C(=O)Nc3ccc(OC(F)F)cc3)c2c1 | -30% | 3%
CCOc1ccc(CN2CCc3nc(Nc4ccc(OC)cc4OC)ncc3C2)cc1 | x | 5%
CC(NCc1ccc2c(c1)OCO2)C(=O)NC1CCCc2ccccc21 (stereo not drawn) | 3% | 5%
Cc1cc(C)cc(N(CCC#N)C(=O)CSc2nc3nc(C)cc(C)n3n2)c1 | -9% | -3%

Screening data deposited in PubChem by National Center for Advancing Translational Sciences (NCATS).
